Screens from PubChem.
V. cholerae QS = Vibrio cholerae quorum sensing activators, luminescence (AID 686977); luminescence at 50 µM unless noted, or EC50 in µM where a hit was titrated; V. cholerae quorum sensing reporter, luminescence, 6 h; higher luminescence means a stronger effect; most inactives read 0; 9,400 tested, under 10 active;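 active = light above mean plus 3 SD and confirmed in a dose series; inconclusive = above that limit without a clear retest; inactive = below it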;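 also: raw light counts without normalisation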
* hit, by the source's call; ? = inconclusive; [ ] = remark or other dose. Not all compounds are listed; count on the stated rates, not on these rows.

SMILES	V. cholerae QS
COc1ccc(N2CCN(C(CNC(=O)c3cccc(Cl)c3)c3cccnc3)CC2)cc1 (stereo not drawn)	0
COc1ccc(NC(=O)Nc2cccc(C)n2)cc1	0
O=C(c1ccccc1NS(=O)(=O)c1ccc(Br)s1)N1CCOCC1	0
Nc1nc(SCC(=O)NC2CCCCCC2)[nH]c(=O)c1-c1ccccc1	0
Cc1ccc(C(NC(=O)NCCCN2CCOCC2)=C(Cl)Cl)cc1F	0
Cc1onc(-c2c(F)cccc2Cl)c1C(=O)Nc1nnc(-c2ccccc2)s1	0
CC(C)CCNC(=O)c1cccc(C(=O)NCCC(C)C)c1	0
CC(=O)Nc1nc2n(n1)C(c1ccccc1)C=C(c1ccccc1)N2 (stereo not drawn)	40
CCN(CC)C(=O)CN(c1cccc(OC)c1)S(=O)(=O)c1ccc(C)cc1	0
CC(C)n1c(SCc2ccccc2F)nc2c1c(=O)n(C)c(=O)n2C	40
COP(=O)(OC)C(O)C(Cl)(Cl)Cl (stereo not drawn)	40[10 µg/mL]
OCCNc1nc(-c2cccnc2)nc2ccccc12	0
Cc1cc(C(C)(C)C)cc(S(=O)(=O)Nc2ccc(O)c(C(=O)O)c2)c1C	40
CCCCNCc1cc(Br)c(OCC(=O)N2CCOCC2)c(OC)c1	?
CCOC(=O)N1CCC(NC(=O)c2cc3c(-c4ccccc4F)nn(C)c3s2)CC1	0

Next records
SMILES	V. cholerae QS
COc1ccc(C(=O)NCc2n[nH]c(=S)n2-c2ccccc2)cc1OC	40
Fc1ccc(Cn2c(-c3cscn3)nc3ccccc32)c(Cl)c1	0
COCCn1c(SCCN2CCOCC2)nc2c1c(=O)[nH]c(=O)n2C	0
CC(C)Cc1ccc(S(=O)(=O)N2CCOCC2)cc1	40
C=CCNC(=O)c1ccccc1NC(=O)c1cccc2ccccc12	0
O=C(O)CC1=C(O)C(=O)N(c2ccccc2)C1c1ccccc1 (stereo not drawn)	0
COc1cc(=O)n(C)c2c(OCC(O)C(C)(C)O)cccc12 (stereo not drawn)	0[10 µg/mL]
CC(C)CC(NS(=O)(=O)c1ccc2c(c1)oc(=O)n2C)C(=O)NCc1cccnc1 (stereo not drawn)	0
O=C(O)CCCc1ccc(N(CCCl)CCCl)cc1	40[10 µg/mL]
CCOC(=O)N1CCN(c2c(Nc3cc(C)[nH]n3)c(=O)c2=O)CC1	0
Clc1cccc(Cl)c1NC1=NCCN1	0[10 µg/mL]
CC1CC(C)CN(c2ncc3c(n2)CC(c2ccc(Cl)cc2)CC3=O)C1 (stereo not drawn)	0
O=C1CC(=O)N(CCc2ccccc2)C(=O)N1CCc1ccccc1	0
C=C(C)c1cccc(C(C)(C)NC(=O)NCC2CCCO2)c1 (stereo not drawn)	0
COc1cc2c3nnc(-c4ccc(F)cc4)c-3cn(Cc3ccccc3)c2cc1OC	0

An excerpt from above in order of molar mass, smallest number first:
SMILES	V. cholerae QS
Clc1cccc(Cl)c1NC1=NCCN1	0[10 µg/mL]
OCCNc1nc(-c2cccnc2)nc2ccccc12	0
CCN(CC)C(=O)CN(c1cccc(OC)c1)S(=O)(=O)c1ccc(C)cc1	0

The list goes on:
SMILES	V. cholerae QS
O=C(Nc1ccc2nc3n(c(=O)c2c1)CCCCC3)c1ccccn1	0
COc1cccc(-c2cc(C(F)(F)F)nc(NCc3ccco3)n2)c1	0
[O-][n+]1c2ccc3nonc3c2nn1-c1ccccc1Cl	0
CN(C)C(=O)Oc1cccc([N+](C)(C)C)c1	40[10 µg/mL]
CCC(C(=O)N1CCN(C(=O)c2ccco2)CC1)c1ccccc1 (stereo not drawn)	0
Cc1ccc(CN2C(=O)CCC2(C)C(=O)NCc2cccnc2)cc1 (stereo not drawn)	0
Nc1ncn(C2O[C@H](CO)[C@H](O)[C@@H]2O)c(=O)n1 (stereo partly drawn)	0[10 µg/mL]
CCN(CC)CCNC(=O)c1ccc(N)cc1	0[10 µg/mL]
COc1ccc2[nH]c(C)c(CCN3C(=O)C4CC=CCC4C3=O)c2c1 (stereo not drawn)	40
Cn1c(SCC(=O)NCC2CCCO2)nnc1-c1c[nH]c2ccccc12 (stereo not drawn)	0
CCC(C(=O)OC)n1cnc2c(cnn2-c2ccc(Cl)cc2)c1=O (stereo not drawn)	40
CCCC(=O)c1ccc2c(c1)OCCO2	0
N#C/C(=C\c1ccc(OCc2ccccc2)cc1)C(=O)Nc1nc2c(s1)CCN(Cc1ccccc1)C2	0
CCOC(=O)n1ccn(C)c1=S	40[10 µg/mL]
Cc1ccc2cc(CCNC(=O)c3ccco3)c(=O)[nH]c2c1C	40

Next section:
SMILES	V. cholerae QS
O=C(Nc1nccs1)c1nc(-c2ccccc2)n(-c2ccccc2)n1	280
N#Cc1nc(Cc2ccccc2)oc1N1CCN(c2cccc(Cl)c2)CC1	40
c1cncc(-c2nc(NCc3ccco3)c3ccccc3n2)c1	0
O=C(Nc1nccs1)C1CCCN(S(=O)(=O)c2cccnc2)C1 (stereo not drawn)	0
c1ccc(C2C3=C(CCCC3)Nc3ncnn32)cc1 (stereo not drawn)	0
CC(=O)N(c1ccccc1)c1c(F)c(F)c(F)c(F)c1F	0
O=C1CC(=O)N(c2cccc(Cl)c2)C(=O)N1	0
CCNC(=O)c1ccc(-n2nc(C(F)(F)F)c3c2CCCC3)cc1	0
CN(C)S(=O)(=O)c1ccc(NC(=O)c2ccccn2)cc1	0
COc1cccc(NC(=O)CN2CC(c3ccccc3)CC2=O)c1 (stereo not drawn)	0
CCOc1ccc(Oc2nc(NCC(C)C)nc(OC)n2)nn1	0
CCOC(=O)c1sc2nc(NC(=O)C(C)(C)C)sc2c1C	0
N#C/C(=C\c1ccc[nH]1)Sc1nc2ccccc2s1	40
CC(=NCC1CCCO1)c1c(O)n(-c2ccccc2)c(=O)[nH]c1=O (stereo not drawn)	0
O=c1nc(NCc2ccccc2Cl)cn[nH]1	?

(continued)
SMILES	V. cholerae QS
CCOC(=O)c1cccc(N2C(=O)C3C(C(=O)NC4CC4)C4(C)C=CC3(O4)C2C(=O)NC(C)(C)C)c1 (stereo not drawn)	0
CCCn1nnnc1SCC(=O)NNC(=O)C1CCCCC1	0
CCOC(=O)NC(NCc1ccccc1Cl)(C(F)(F)F)C(F)(F)F	0
COc1ccc2cc3[n+](cc2c1OC)CCc1cc2c(cc1-3)OCO2	0[10 µg/mL]
Cc1nnc(SCc2ccccc2)nc1/C=C/NOCc1ccc(Cl)cc1Cl	0
CC(=O)N1CCN(c2ccc(Nc3ncnc4c3oc3ccccc34)cc2)CC1	0
O=C(C1CCCN1S(=O)(=O)c1cccc2cccnc12)N1CCn2c1nc1ccccc12 (stereo not drawn)	0
Cc1cccc(C)c1OCC(C)N (stereo not drawn)	40[10 µg/mL]
CCCn1c(N)c(N2CCCCC2)c(=O)n(CC(=O)Nc2ccc(OC(F)(F)F)cc2)c1=O	0
O=C(NCCc1ccncc1)Nc1ccccc1Cl	0
CCc1ccc(NC(=O)C(C)Oc2nnc(-c3cccs3)c(-c3cccs3)n2)cc1 (stereo not drawn)	0
COc1ccc(OC)c(C(C)NC=O)c1 (stereo not drawn)	40
O=C1NCC(COCc2ccccc2)O1 (stereo not drawn)	0
Cc1cc(N(C)C)cc(C)[n+]1[O-]	0
O=C(c1c(F)cccc1F)N(Cc1ccccn1)C1CC1	0

The list goes on.
SMILES	V. cholerae QS
Cn1c(N)c(C(=O)COC(=O)C2(c3ccc(Cl)cc3)CCCC2)c(=O)n(C)c1=O	40
CCOc1nc2ccccc2nc1C	?
Cc1ccc(-c2csc(N3CCC(C(N)=O)(N4CCCCC4)CC3)n2)cc1	?
Cn1c(SCCCC(=O)c2ccc(F)cc2)nnc1-c1ccncc1	0
CN1CCc2cccc3c2[C@H]1Cc1ccc(O)c(O)c1-3	0[10 µg/mL]
CCOC(=O)CSc1nc(C)c2ccccc2n1	0
O=c1cc(-c2ccccc2)[nH]n1-c1ccc([N+](=O)[O-])cc1	0
O=C(CCCN1CCN(c2ccccn2)CC1)c1ccc(F)cc1	0[10 µg/mL]
c1ccc(CNc2ncnc3nc[nH]c23)cc1	40[10 µg/mL]
Cn1cnnc1SCC(=O)c1ccc2c(c1)CCCC2	0
CC(=O)O[C@H]1C(=O)[C@@]2(C)[C@H]([C@H](OC(=O)c3ccccc3)[C@]3(O)C[C@H](OC(=O)[C@H](O)[C@@H](NC(=O)c4ccccc4)c4ccccc4)C(C)=C1C3(C)C)[C@]1(OC(C)=O)CO[C@@H]1C[C@@H]2O	40[10 µg/mL]
COC(=O)CN1C(=O)CSc2ncccc21	0
O=C(NCCc1csc(-c2ccc(C(F)(F)F)cc2)n1)c1cccs1	0
Cc1ccc(O)c(-c2cc(-c3cccc(F)c3)n[nH]2)c1	0
CCS(=O)(=O)N1CCCC(C(=O)NCc2ccccc2Cl)C1 (stereo not drawn)	0

Next part:
SMILES	V. cholerae QS
CCOc1ccc(NC(=O)CN2C(=O)COc3ccc(Cl)cc32)cc1	40
CC(=O)NC1CCSC1=O (stereo not drawn)	0[10 µg/mL]
Cc1ccc(-c2nc(CS(=O)(=O)CC(=O)NCCCN3CCN(C)CC3)c(C)o2)cc1	0
Cc1ccc(CSc2nnc3nc(C)cc(C)n23)cc1	40
CCc1ccc(CCC(=O)Nc2ccc(S(N)(=O)=O)cc2)o1	40
CCN1CCCC1CNC(=O)CN1C(=O)COc2ccc(C)cc21 (stereo not drawn)	0
C[C@@H](C(=O)NCc1ccccc1)N1C(=O)C2CC=CCC2C1=O (stereo partly drawn)	0
Cc1nc2cc(C(F)(F)F)ccc2n1C1CCN(CC(=O)NC(C)(C)C)CC1	40
O=C(CN1C(=O)CSc2ncccc21)NCCN1CCOCC1	40
CC(CCc1ccccc1)NC(=O)C1CCN(c2nnc(-n3cccc3)s2)CC1 (stereo not drawn)	0
O=C(NCCOC(=O)c1ccc(C(=O)OCCNC(=O)c2ccccc2)o1)c1ccccc1	40
O=C(CSc1nnc(-c2cccs2)o1)N1CCCCC1	0
c1ccc(COc2ccc(Nc3ncnc4nc[nH]c34)cc2)cc1	0
CC(=O)c1ccc(N=Cc2c(O)n(-c3cc(Cl)ccc3N3CCOCC3)c(=O)c3ccccc23)cc1	40
Cc1ccc(NCCC(=O)c2cccs2)cc1Cl	0

Copied from the list:
COc1ccc2cc3[n+](cc2c1OC)CCc1cc2c(cc1-3)OCO2 in V. cholerae QS is entered as 0[10 µg/mL]
CC(=NCC1CCCO1)c1c(O)n(-c2ccccc2)c(=O)[nH]c1=O (stereo not drawn) in V. cholerae QS is entered as 0
COc1ccc(C(=O)NCc2n[nH]c(=S)n2-c2ccccc2)cc1OC in V. cholerae QS is entered as 40

Remaining list, next part
SMILES	V. cholerae QS
COc1ccc(S(=O)(=O)Cc2ccc(C(=O)N3CCN(c4ccccn4)CC3)o2)cc1	0
O=C(NC1CCCCC1)C1CCC(CNS(=O)(=O)c2cccc3nsnc23)CC1 (stereo not drawn)	40
CCC(C)(C)n1nnnc1C(c1ccccn1)N1CCOCC1 (stereo not drawn)	0
Cc1cc2ccccc2n1CCNC(=O)C1CCCCC1	0
CC1CN(CC(=O)c2c(N)n(Cc3ccccc3)c(=O)n(C)c2=O)CC(C)O1 (stereo not drawn)	40
CCOC(=O)c1c(CN2CCN(c3ccccc3)CC2)oc2ccc(O)cc12	40
Cc1cc(C(=O)NCCN2CCCCC2C)n(-c2ccccc2)n1 (stereo not drawn)	0
CCN(Cc1ccncc1)C(=O)C(CO)c1ccccc1 (stereo not drawn)	0[10 µg/mL]
CC(C)c1ccc(OCC(=O)NCc2ccco2)cc1	0
COc1ccc(C(=O)Nc2cc(-c3nn4c(C)nnc4s3)ccc2C)cc1	?
Cc1[nH]ccc2c1[nH]c1cc(=O)ccc12	0[10 µg/mL]
CC(=O)N1CCCc2cc(S(=O)(=O)CCC(=O)N3CCN(c4cccc(C)c4)C(C)C3)ccc21 (stereo not drawn)	0
O=C(Nc1nc2c(s1)CCCC2)c1cc2n(n1)C(C(F)(F)F)CC(C1CC1)N2 (stereo not drawn)	0
CC1(C)CC(=O)c2sc(NC(=O)CCS(=O)(=O)c3ccccc3)nc2C1	0
Cc1cc(C)nc(N2N=C(C(C)(C)C)CC2=O)n1	0

4 entries picked at random from those above, as already listed:
SMILES	V. cholerae QS
CC(C)c1ccc(OCC(=O)NCc2ccco2)cc1	0
CC(=O)N1CCCc2cc(S(=O)(=O)CCC(=O)N3CCN(c4cccc(C)c4)C(C)C3)ccc21 (stereo not drawn)	0
Cc1ccc(-c2csc(N3CCC(C(N)=O)(N4CCCCC4)CC3)n2)cc1	?
O=C(O)CC1=C(O)C(=O)N(c2ccccc2)C1c1ccccc1 (stereo not drawn)	0

The list continues:
SMILES	V. cholerae QS
O=c1c2c(nc3cc(-c4ccc(F)cc4)[nH]n13)CCCC2	0
O=C1c2ccccc2C(Nc2ccc(-c3nc4ccccc4[nH]3)cc2)N1Cc1ccco1 (stereo not drawn)	0
COc1cc2c(cc1OC)C(C)N(C(=O)Cn1ncc3c1-c1ccccc1OC3)CC2 (stereo not drawn)	40
Cc1ccc(NC(=O)COC(=O)c2ccn(C)n2)cc1	0
CSCCC(/C(O)=C(\C#N)c1nc2ccccc2[nH]1)N1C(=O)c2ccccc2C1=O (stereo not drawn)	0
COCCNC(=O)CS(=O)Cc1nc(-c2ccccc2C)oc1C (stereo not drawn)	0
COc1ccc(-c2c(NC(=O)c3ccco3)n(C)c3ccccc3c2=O)cc1	0
CCOC(=O)c1c(NC(=O)c2ccoc2C)sc(C(=O)N(C)C)c1C	0
CC[C@H]1OC(=O)[C@H](C)[C@@H](OC2C[C@@](C)(OC)[C@@H](O)[C@H](C)O2)[C@H](C)[C@@H](O[C@@H]2O[C@H](C)C[C@H](N(C)C)[C@H]2O)[C@](C)(O)C[C@@H](C)/C(=N\OCOCCOC)[C@H](C)[C@@H](O)[C@]1(C)O (stereo partly drawn)	0[10 µg/mL]
